# KCNQ2 enhance = KCNQ2 (rat) channel potentiation | O88943 | CHO-K1 KCNQ2, FluxOR thallium flux fluorescence; active compounds read high | B-score at 10 µM | hit rate 0.54% among 310,000;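 active = fluorescence ratio B-score at least 3 SD of library B-scores, with initial fluorescence B-score within 3 SD, cut at about 5.3 in these data; same plate scores as AID 2156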;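 note: B-score of peak minus minimum over baseline fluorescence ratio after K+ and Tl+ stimulus; positive B-score means potentiation of KCNQ2 with more thallium influx and brighter signal; only the inactives scoring about 0 or higher are listed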
# Target sequence (O88943 whole entry, looked up): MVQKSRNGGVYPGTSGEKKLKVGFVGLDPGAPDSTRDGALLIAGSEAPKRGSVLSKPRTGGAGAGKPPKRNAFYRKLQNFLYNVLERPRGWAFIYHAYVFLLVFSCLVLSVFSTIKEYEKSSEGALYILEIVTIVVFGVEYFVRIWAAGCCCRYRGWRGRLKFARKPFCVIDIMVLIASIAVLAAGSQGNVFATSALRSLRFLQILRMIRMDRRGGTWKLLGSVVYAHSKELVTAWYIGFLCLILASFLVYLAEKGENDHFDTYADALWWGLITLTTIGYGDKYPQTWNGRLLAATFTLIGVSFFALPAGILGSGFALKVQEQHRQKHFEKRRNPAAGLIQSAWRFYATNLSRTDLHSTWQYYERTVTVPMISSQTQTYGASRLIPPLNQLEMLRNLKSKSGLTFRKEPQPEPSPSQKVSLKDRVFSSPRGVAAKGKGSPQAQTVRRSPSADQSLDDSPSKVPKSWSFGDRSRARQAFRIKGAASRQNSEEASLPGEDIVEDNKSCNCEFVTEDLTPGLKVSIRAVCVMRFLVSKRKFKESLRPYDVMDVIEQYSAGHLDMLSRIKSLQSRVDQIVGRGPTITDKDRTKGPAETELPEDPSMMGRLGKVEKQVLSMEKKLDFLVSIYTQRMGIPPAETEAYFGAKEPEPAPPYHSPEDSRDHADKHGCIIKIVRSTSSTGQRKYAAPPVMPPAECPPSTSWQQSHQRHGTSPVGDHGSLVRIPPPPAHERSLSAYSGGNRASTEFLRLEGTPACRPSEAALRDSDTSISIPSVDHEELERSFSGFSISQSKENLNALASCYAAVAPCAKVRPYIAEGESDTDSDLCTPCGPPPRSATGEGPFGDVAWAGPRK
# KCNQ2 enhance baseline = recorded beside KCNQ2 enhance, whose call it bears; B-score; compound at 10 µM; measured here: initial fluorescence intensity artifact check;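 brightness before thallium and not channel activity; 0 = typical well and far values either way flag optical interference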
# Active calls of the source: *. An excerpt, so the mix of outcomes need not match the whole.
SMILES,KCNQ2 enhance,KCNQ2 enhance baseline
CC(=O)NC(CC(=O)O)C(=O)O (centres undefined),1.1,0.03
O=C(c1ccc(S(=O)(=O)N2CCc3ccccc3C2)cc1)N1CCCCC1,1.7,2.4
COc1ccccc1CNC(=O)COC(=O)c1ccc(C)c(S(=O)(=O)N2CCOCC2)c1,0.38,2.3
Cc1ccc(CN2CCCC(C(=O)N3CCCC3)C2)cc1 (centres undefined),0.38,0.21
CN1CCN(S(=O)(=O)c2cccc(C(=O)Oc3ccc(Br)cc3F)c2)CC1,0.98,0.46
Cc1ccc(S(=O)(=O)N2CCCCC2)cc1NC(=O)C1CCCO1 (centres undefined),0.1,-2.1
CC1(C)CC(=O)C(CS(=O)(=O)c2ccccc2)=C(O)C1,0.67,-0.18
COc1ccc(C(=O)CSc2nc(N)nc(SC)c2C#N)cc1,0.82,1.6
COC/C=C/C1=CC2=CC(=O)C(C)(OC(=O)c3cnc4ccccc4n3)C(=O)C2=CN1CCc1ccccn1 (centres undefined),0.41,1.5
CCOC(=O)c1nnn(-c2nonc2N)c1CSc1ccc(C)cc1,1.1,-0.19
CCN(CC)C(=O)C1CCCN(C(=S)Nc2cccc3ccccc23)C1 (centres undefined),0.29,-0.7
O=C(Nc1nc2c(s1)CCc1ccccc1-2)c1cccs1,0.02,1.3
CN(C)CCCOC(=O)c1ccc(Cl)cc1Cl,0.69,0.13
O=C1CC2(CCCC2)Oc2ccc(Cl)cc21,2.8,0.16
COc1cccc(NC(=S)NCc2ccccn2)c1,0.05,-1.9
O=C(NCCc1c[nH]c2ccccc12)c1c(Cl)nc2sccn12,1.6,1.2
Cc1sc2ncnc(NCCCN3CCCC3=O)c2c1C,1.9,-1.9
CCn1cc(C(=O)NCCc2ccc(OC)cc2)c(=O)c2ccc(C)nc21,0.67,-0.21
CN(C)/C=N/n1cnc2ccccc2c1=O,0.71,0.03
CCn1c2ccccc2c2cc(NC(=O)COC(=O)c3ccc(NC(=O)CC#N)cc3)ccc21,0.22,0.61
O=C(CSCCc1ccccn1)Nc1ccccn1,0.31,-3.3
CC1=C(C)CC2C(=O)N(c3cccc4ccccc34)C(=O)C2C1 (centres undefined),0.05,0.94
COc1cc(OC)c(NS(=O)(=O)c2c(C(=O)N3CCCCC3)c(C)n(C)c2C)cc1Cl,0.5,0.96
Cc1cc(C)n(CCCNC(=O)CN(C)S(=O)(=O)c2ccc(Cl)cc2)n1,0.48,-0.2
N=C(N)c1ccc(O)cc1,0.72,-0.96
Cc1cccc(NCC(=O)N/N=C\c2cccc(Oc3ccccc3)c2)c1,0.94,-0.02
Cc1ccc(CN2CCNC(=O)C2CC(=O)O)o1 (centres undefined),0.07,-0.61
Cc1ccc(OCC(=O)Nc2ccc(NC(=O)c3cccs3)cc2)c(C)c1,0.9,0.56
COC(=O)c1ccc(OC)c(OC)c1Cl,0.91,-0.01
O=C(CSc1n[nH]c(-c2ccccn2)n1)Nc1cccc(Cl)c1,0.3,1.7

# Four compounds from above, arranged by SMILES length, high to low:
SMILES,KCNQ2 enhance,KCNQ2 enhance baseline
Cc1cc(C)n(CCCNC(=O)CN(C)S(=O)(=O)c2ccc(Cl)cc2)n1,0.48,-0.2
Cc1ccc(OCC(=O)Nc2ccc(NC(=O)c3cccs3)cc2)c(C)c1,0.9,0.56
CC1=C(C)CC2C(=O)N(c3cccc4ccccc34)C(=O)C2C1 (centres undefined),0.05,0.94
COC(=O)c1ccc(OC)c(OC)c1Cl,0.91,-0.01

# Compounds listed so far that contain a Cl atom, in the order listed:
SMILES,KCNQ2 enhance,KCNQ2 enhance baseline
CN(C)CCCOC(=O)c1ccc(Cl)cc1Cl,0.69,0.13
O=C1CC2(CCCC2)Oc2ccc(Cl)cc21,2.8,0.16
O=C(NCCc1c[nH]c2ccccc12)c1c(Cl)nc2sccn12,1.6,1.2
COc1cc(OC)c(NS(=O)(=O)c2c(C(=O)N3CCCCC3)c(C)n(C)c2C)cc1Cl,0.5,0.96
Cc1cc(C)n(CCCNC(=O)CN(C)S(=O)(=O)c2ccc(Cl)cc2)n1,0.48,-0.2
COC(=O)c1ccc(OC)c(OC)c1Cl,0.91,-0.01
O=C(CSc1n[nH]c(-c2ccccn2)n1)Nc1cccc(Cl)c1,0.3,1.7

# Next section:
SMILES,KCNQ2 enhance,KCNQ2 enhance baseline
CC1=NNC(=O)C1CCC(=O)N/N=C/c1ccccc1 (centres undefined),0.25,0.63
Cc1cc(C)cc(N(CC(=O)NCc2ccc3c(c2)OCO3)C(=O)CCC(=O)Nc2ccccn2)c1,0.24,-0.32
COC(=O)c1ccsc1NS(=O)(=O)c1ccccc1,0.02,1.5
Cc1cccc(NC(=O)NCc2ccccn2)c1,0.43,-0.19
NC(=O)C1(N2CCCCC2)CCN(C(=S)Nc2cc(F)cc(F)c2)CC1,0.02,-2
C/C(=N\Nc1nc2ccccc2[nH]1)c1ccc(Cl)s1,13*,1.6*
COc1ccc(-c2cc3ccc(O)cc3oc2=O)cc1OC,1.4,2.6
Nc1nc(SCC(=O)Nc2cccc(Oc3ccccc3)c2)n[nH]1,6.4*,0.01*
CCCCN=C(C)C1=C(O)CSC1=O,0.01,0.91
O=C(O)C1C2CCCCC2=C2CCCCC2C1C(=O)O (centres undefined),0.91,-0.05
O=C(Nc1ccc(SC(F)(F)F)cc1)c1ccccn1,0.44,0.03
O=C(NCC(=O)N1CCC2(CC1)NCCc1[nH]cnc12)c1ccccc1F,1.4,-0.18
COc1ccc(CCNC(=O)Cn2nnc(-c3cccc(OC)c3OC)n2)cc1OC,0.12,0.16
Cc1csc(NC(CO)c2nc3ccccc3n2CCOCCO)n1 (centres undefined),0.98,2.3
COc1ccccc1NC(=O)Cn1c(=O)oc2cc(S(=O)(=O)N3CCCC3)ccc21,1.3,-0.17
COc1ccc(C(=O)N2CCN(C(=O)c3ccncc3)CC2)cc1,1.8,0.64
COc1ccc(CC(=O)Nc2cccc(C)n2)cc1OC,0.98,-1.5
CC(=O)N1CCC(O)(c2cccc(C(F)(F)F)c2)CC1,0.25,-0.24
CCOC(=O)c1cnc2ccccc2c1Nc1cccc(C(=O)O)c1,2,-2.9
CCN1CCCC1CNCc1cccc(OC)c1OCc1ccccc1F (centres undefined),0.33,-0.15
CC1=C(C(=O)Nc2cc(C)ccn2)C(c2ccc(C)cc2)C2=C(CCCC2=O)N1 (centres undefined),0.09,0.88
Cc1cc(NC(=O)CCC(=O)N(CC(=O)NC2CCCC2)c2ccc(F)cc2)no1,0.36,0.85
Cc1ccccc1NC(=S)NNC(=O)c1csc2c1CCC(C)C2 (centres undefined),3.2,-0.27
CCc1ccc(N2C(=O)C3NN=C(C(=O)OCc4ccccc4)C3C2=O)cc1 (centres undefined),0.62,-0.79
Cn1c(=O)c2c(nc(Cl)n2CCOc2ccccc2)n(C)c1=O,0.51,0.51
Fc1ccc(/C=N/c2c(-c3ccc(F)cc3)nc3n2CCS3)cc1,1.5,-0.17
FC(F)(F)c1ccc(-c2nc(=S)[nH][nH]2)cc1,0.17,-0.01
CCOC(=O)CSc1nnc(NC(=O)NC(C)C)s1,0.32,0.08
C/C(=N\NC(=O)CC#N)C1COc2ccccc2O1 (centres undefined),0.67,0.01
Cc1ccc(C(=O)NCCCn2ccnc2)cn1,0.02,1.4
CC(=O)c1cccc(NC(=O)CO/N=C2/CCCc3nonc32)c1,0.09,-1.7
N#Cc1c(Cl)cccc1Oc1ccc(S(=O)(=O)Nc2ccccc2)cc1,0.95,-0.46
O=C1CC(c2ccco2)CC(O)=C1C=NCCO (centres undefined),1,0
Cc1cc(C)c(-c2cc(C(=O)Nc3cc(C)ccc3C)[nH]n2)c(O)c1,0.57,-0.48
CCN1C(=O)/C(=C\N2CCN(c3ccccc3)CC2)SC1=S,2.3,-1.7
COc1ccc(CNC(=O)c2ccccc2NC(=O)C2=CSCCO2)c(OC)c1,0.78,0.79
OCCCn1c(-c2ccccc2)nc(=S)c2c1CCCC2,0.03,0.81
Cc1ccc(C)c(/C(O)=C2\C(=O)C(=O)N(CCCn3ccnc3)C2c2cccnc2)c1 (centres undefined),0.89,1.9
COc1ccccc1NC(=O)N1CCN(c2cc(-c3ccccc3)nc3ncnn23)CC1,1.1,1.3
COc1ccc(CNC(=O)c2cc3c(C)nc4ccccc4c3o2)c(OC)c1,0.08,1.9
COc1cc(NC(=O)c2cc(Cl)nnc2Cl)cc(OC)c1OC,1.4,0.34
COC(=O)N/N=C/c1ccc(-c2cccc(Cl)c2)o1,2.4,-0.76
Cc1c(C(=O)NC(C)CCc2ccccc2)cccc1[N+](=O)[O-] (centres undefined),0.12,0.53
O=C(NC(=S)Nc1ccc(N2CCCCC2)cc1)c1ccc2c(c1)OCCO2,0.02,1.5
Cc1ccccc1C(=O)NNC(=O)c1cc(N)cc([N+](=O)[O-])c1,1.1,0.33
COc1ccc(NS(=O)(=O)c2ccc3c(c2)[C@H]2C=CC[C@H]2[C@@H](c2ccc(C(=O)O)cc2)N3)cc1,0.19,-0.7
Cc1cc(Nc2nnnn2-c2ccccc2)n(-c2ccc(Cl)cc2)n1,0.63,-0.89
CCC(=O)Nc1ccc(CCC(=O)N2CCCC2)cc1,0.94,-0.93
CC(C)n1nnnc1-c1ccc(Cl)cc1,0.1,-0.53
CC(=O)Nc1ccc(NC(=O)C(C)OC(=O)CC2CCCCC2)cc1 (centres undefined),1.9,-0.89

# More compounds
SMILES,KCNQ2 enhance,KCNQ2 enhance baseline
CC(=O)c1ccccc1C(=O)N1CCCC(CCC(=O)N2CCN(c3ccccn3)CC2)C1 (centres undefined),0.89,0.79
C=CCNC(=S)N/N=C/c1ccc(-c2cccc([N+](=O)[O-])c2)o1,0.28,-0.39
Cc1ccc(Cl)c(NC(=O)CN2CCN(C=O)CC2)c1,0.26,-0.63
O=C(CCCn1c(=O)[nH]c2ccsc2c1=O)NCc1cccs1,0.13,-1.2
CCc1cccc(Nc2cnn(C34C[C@@H]5C[C@@H](CC(CC(=O)O)(C5)C3)C4)c(=O)c2Cl)c1,0.07,1.2
CC(=O)N(CC(=O)O)c1ccccc1,0.66,-1
Cc1ccc(S(=O)(=O)N2CCN(C(=O)COC(=O)c3cc(C)oc3C)CC2)cc1,0.42,-0.94
COc1ccc(C2c3c(-c4ccccc4O)n[nH]c3C(=O)N2Cc2ccco2)cc1OC (centres undefined),1.2,-0.02
O=[N+]([O-])c1cccc(S(=O)(=O)N2CCN(c3ccccn3)CC2)c1,2.1,0.79
COc1ccc(CCNC(=O)CN(c2ccc(OC)c(OC)c2)S(=O)(=O)c2ccccc2)cc1OC,0.85,0.51
CC1=C(C(=O)OCC2CCCO2)C(c2coc3ccccc3c2=O)C2=C(CCCC2=O)N1 (centres undefined),1.8,-0.53
CSCCC(NS(=O)(=O)c1ccc2c(c1)oc(=O)n2C)C(=O)NCc1ccccc1 (centres undefined),1.9,0.84
CCCCOC(=O)CSc1nc(N)c(C#N)c(-c2ccc(OCC)cc2)c1C#N,0.12,0.47
COc1cc([N+](=O)[O-])ccc1NC(=O)C1C2C=CC(C2)C1C(=O)O (centres undefined),0.06,-0.49
O=C(O)c1cc(NN=Nc2cccc(S(=O)(=O)O)c2)cc([N+](=O)[O-])c1,0.41,-1.6
Cc1ccc(CN2CCN(Cc3cnc(N4CCOCC4)s3)CC2CCO)o1 (centres undefined),0.08,-1.1
CCOC(=O)N1CCN(C2=C(NS(=O)(=O)c3ccc(NC(C)=O)cc3)C(=O)c3ccccc3C2=O)CC1,0.1,0.44
O=C(Cn1nc(C(=O)O)c2ccccc2c1=O)Nc1cc(Cl)cc(Cl)c1,1.6,1.1
COc1cccc(C(=O)NCC(=O)N/N=C/c2ccc3c(c2)OCO3)c1,0.73,2.2
O=S(=O)(NCc1cc(-c2ccccc2)no1)c1ccc(Cl)cc1,0.11,0.22
C=CCn1c(-c2ccccc2OC)n[nH]c1=S,1.1,0.41
O=C(NCc1ccco1)/C(=C/C=C/c1ccccc1)NC(=O)c1ccco1,0.51,2.3
CCCn1c(=O)c(C(=O)NCc2ccncc2)c(O)c2ccccc21,0.05,-0.35
c1ccc(OCCOc2ncnc3sccc23)cc1,0.68,-0.07
O=S(=O)(NC(=S)NC1CCCCC1)c1cccs1,0.12,-0.69
CCC(=O)Nc1ccc2c(c1)C(=O)c1ccccc1C2=O,0.53,2.1
CC(CCc1ccccc1)NC(=O)CNC(=O)c1cccs1 (centres undefined),0.83,-0.72
CCC(=O)Nc1cccc(NC(=S)NC(=O)c2ccc(C)cc2)c1,0.53,1.9
O=C1C=C(N2CCCCC2)c2ccccc2C1=O,0.15,-2.7
CC(C)CC(=O)Nc1ccccc1N1CCN(C(=O)c2ccccc2)CC1,1.6,0.73
CC(=O)Nc1ccc2c(c1)C(=O)N(C1CCCCC1)C2=O,0.63,-0.11
c1ccn2c(SCc3cn4ccsc4n3)nnc2c1,0.16,0.74
COc1ccc(/C=N/NC(=O)CNC(=O)c2ccncc2)cc1OC,0.49,1.2
C=CCn1c(=O)c2ccccc2n2c(SCC(=O)N3CCCc4ccccc43)nnc12,0.69,-0.33
O=S(=O)(NCc1ccccn1)c1ccc(F)cc1,1.4,0.57
CCN(CC)S(=O)(=O)c1ccc(OCCNS(C)(=O)=O)cc1,1.8,-4.1
C(=C\c1ccccn1)/c1ccncc1,0.44,0.21
N#Cc1c(SCC(=O)O)nc(N2CCCCC2)c2c1CCCC2,1.8,0.38
COc1cccc(-n2cn[nH]c2=S)c1,0.56,0.29
O=C(NC1(C(F)(F)F)NC(=O)N(C2CCCC2)C1=O)C1CC1 (centres undefined),1.2,1.7
Cc1cc(CN2CCC(n3nccc3NC(=O)c3ccccc3Cl)CC2)cc(C)c1O,2.1,-0.06
